Ecoli growth: E. coli growth inhibition, primary screen, OD600 | Escherichia coli growth, 23 h; stronger effect = lower value | OD600 absorbance (no concentration beside the values) | actives 0.21% (n = 330,000);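 active = OD600 absorbance below the run mean of sample wells minus 3.6 SD, in any replicate, cut at about 0.56 in these data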;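 also: stock transfer was 300 nL into about 60 µL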
UCH37 inh: inhibitors of human UCH37 deubiquitinase, primary screen, biochemical, Ub-AMC cleavage, fluorescence; actives 0.33% (n = 330,000); purified proteasome/UCH37; inhibition, % (test concentration not listed);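 active = mean of two replicates above 20%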;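 also: 0% = compound-free wells with enzyme and 100% = wells lacking proteasome; stock transfer was 100 nL into about 20 µL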
Target sequence (Q9Y5K5 whole entry, looked up): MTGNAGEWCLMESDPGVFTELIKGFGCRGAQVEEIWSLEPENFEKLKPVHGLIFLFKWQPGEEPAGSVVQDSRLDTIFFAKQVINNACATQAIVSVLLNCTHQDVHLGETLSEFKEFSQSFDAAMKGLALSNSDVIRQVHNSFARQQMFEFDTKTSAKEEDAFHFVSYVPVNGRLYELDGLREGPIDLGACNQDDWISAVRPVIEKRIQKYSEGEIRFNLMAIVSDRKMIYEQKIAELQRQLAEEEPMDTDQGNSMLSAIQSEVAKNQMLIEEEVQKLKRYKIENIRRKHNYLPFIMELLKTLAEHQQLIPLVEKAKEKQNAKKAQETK
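system = Proteasome-associated human UCH37 deubiquitinase | amount = 0.15 nM proteasome as dispensed | medium = pH 7.4 Tris-HCl (50 mM) with ovalbumin, ATP-MgCl2, DTT | incubation = 30 min preincubation with enzyme, 25 min cleavage at room temperature | detection = AMC fluorescence 355/460 nm | read-out basis = percent inhibition | controls = no-proteasome and no-compound wells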
Beta2AR agonist: beta2AR agonists driving receptor internalization, primary screen, cell-based, FAP fluorogen, flow cytometry. AID 504454, 2011. response, % (no concentration beside the values). Am2.2-beta2AR cells; reference of the scale not given here. actives 0.43% (n = 340,000);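 active = response above a set limit, near 3 SD of response in nonfluorescent compounds, cut at about 42% in these data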;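 also: stock transfer was 100 nL into about 11 µL; a reference agonist was the positive control; negative values mostly stem from fluorescent compounds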
HNF4A DNA FP: change in binding of human HNF4A to DNA, primary screen, biochemical, fluorescence polarization, FITC-DNA. Hepatocyte nuclear factor 4-alpha (Homo sapiens), P41235. 1 h. activity change, % at 10 µM. actives 0.3% (n = 360,000). AID 1224865, 2016; in the data active = activity change above about 30%, passing the limit was not always enough;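 also: controls were the assay level and a saturating level of protein; the project sought stronger binding though the title names inhibitors; some compounds called inactive have numbers as strong as hits; positive values seem to mean higher polarization but the record does not say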
ALR H2O2 inh: inhibitors of human ALR sulfhydryl oxidase, primary screen, biochemical, H2O2 detection, HRP-luminol luminescence, single point | FAD-linked sulfhydryl oxidase ALR (Homo sapiens), P55789 | purified ALR, DTT oxidation | inhibition, % (concentration not given with the values) | actives 3.8% (n = 290,000) | AID 485317, 2010;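 active = mean and each replicate at 75% or more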;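 also: stock transfer was 7.5 nL into about 7.5 µL; 0% = neutral wells and 100% = wells with inactivated enzyme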
Target sequence (P55789 whole entry, looked up): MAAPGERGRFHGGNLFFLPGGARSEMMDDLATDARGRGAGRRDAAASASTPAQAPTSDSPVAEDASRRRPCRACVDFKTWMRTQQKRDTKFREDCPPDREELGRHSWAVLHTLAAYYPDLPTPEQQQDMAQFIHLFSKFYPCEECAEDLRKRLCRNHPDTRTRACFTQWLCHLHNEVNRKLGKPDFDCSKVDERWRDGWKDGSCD
Ecoli rRNA inh: reduced GFP signal of wild-type E. coli, primary screen, bacterial rRNA inhibitor project, GFP/RFP fluorescence, OD600, single point. E. coli WT GFP vs humanized-ribosome RFP mutants, 24 h; stronger effect = lower value; DMSO median 0, no signal -100. GFP signal change (wild-type ribosome), % (no concentration beside the values). actives 1.6% (n = 350,000). AID 720706, 2013;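 active = significant combined selectivity score with lowered wild-type GFP, culture density cut under 30%, mutant RFP and density less affected; inactive = any of these conditions unmet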; also: one replicate is shown; some compounds called inactive have numbers as strong as hits
FGF22 binding: binders of human FGF22 protein, primary screen, FGF22 synaptogenesis inhibitor project, biophysical, thermal shift, single point | Fibroblast growth factor 22 (Homo sapiens), Q9HCT0 | recombinant FGF22 thermal shift, SYPRO orange fluorescence; percent of sucrose octasulfate shift, DMSO zero | calls only at 9.99 µM | actives 1.5% (n = 340,000);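 active = melting point raised past a set limit in the mean and every replicate; three in four hits are not shown here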
Target sequence (Q9HCT0 whole entry, looked up): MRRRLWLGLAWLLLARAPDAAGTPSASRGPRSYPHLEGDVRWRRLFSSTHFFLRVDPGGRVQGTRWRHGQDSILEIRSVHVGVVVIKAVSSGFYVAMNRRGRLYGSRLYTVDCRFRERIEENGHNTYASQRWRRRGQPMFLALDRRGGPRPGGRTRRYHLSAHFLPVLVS
Ecoli rRNA inh OD600: recorded beside Ecoli rRNA inh, whose call it bears; OD600 change, %; measured here: OD600 growth;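 optical density of the mix in the first replicate; 0 = DMSO median and -100 = no signal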
Ecoli rRNA inh RFP: also measured in Ecoli rRNA inh; calls as there; RFP signal change, %; measured here: RFP humanized mutant strains;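 first replicate; 0 = DMSO median and -100 = no signal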
* = called active by the depositor; i = inactive; nt = not tested or not shown. The list is partial; rates above refer to the full screens.

Under each structure – Ecoli growth, UCH37 inh, Beta2AR agonist, HNF4A DNA FP, ALR H2O2 inh, Ecoli rRNA inh, Ecoli rRNA inh OD600, Ecoli rRNA inh RFP, FGF22 binding
> O=C(O)C1CCN(S(=O)(=O)c2ccc(Cl)s2)CC1
    0.68, 2.3, 6, -1.2, -7, 7, 9, -0.7, i
> COC(=O)/C(=C\Nc1ccc(Cl)cc1Cl)NC(=O)c1ccccc1
    0.72, -1.7, -2, -0.6, 3, nt, nt, nt, nt
> CCOc1cc(C2NC(=O)NC(C)=C2C(=O)NCc2ccccc2)c(Cl)cc1O (stereo unspecified)
    0.72, 0.7, 0, 4.3, 26, 17, 8, -5.9, i
> CCN(CC(=O)NC(C)C)C(=O)c1cc(S(=O)(=O)N2CCCCC2)ccc1N1CCCCC1
    0.68, 1.7, -6, -3.4, -2, 4, 5, -2.1, i
> Cc1cc(-c2csc(N)n2)c(C)n1CCc1ccccc1
    0.73, 5.3, 7, 7.5, -15, nt, nt, nt, nt
> O=C(NCc1ccccc1)C1=C[C@@H](c2ccc(C(F)(F)F)cc2)C[C@@H](OCc2ccc(CO)cc2)O1
    nt, nt, 18, 0.5, nt, -4, -28, -9.2, i
> CC(=O)Nc1ccc(Sc2ccccc2C(=O)O)cc1
    0.68, 0.2, 4, -1.2, nt, 13, 9, -1.0, i
> CC(C)N1CCc2c(sc(NC(=S)NC(=O)c3ccccc3)c2C#N)C1
    0.68, 3.8, -28, 44*, 10, 6, 3, 0.9, i
> C=C1[C@H]2O[C@H]2[C@@H](OC(C)=O)[C@@]2(C)[C@@H](OC(C)=O)C[C@@H](OC(C)=O)[C@@](C)(O)[C@@H]2[C@@H](OC(C)=O)[C@@]2(O)[C@@H](C)C(=O)O[C@H]2[C@H]1Cl
    0.67, 2.5, -5, 2.5, nt, 9, 6, -0.7, i
> O=C(CCSc1nnc(-c2ccncc2)o1)Nc1ccccc1
    0.68, 2.3, -2, -1.7, -13, nt, nt, nt, nt
> CC(=O)c1cc2c(cc1F)C(C)(C)CCC2(C)C
    0.71, 2.0, -16, 1.7, nt, 17, 6, 3.2, i
> CC(=O)c1sc(NC(=O)CN2C(=O)C3CCCCC3C2=O)nc1-c1ccccc1 (stereo unspecified)
    0.68, 4.2, -8, 0.1, -8, -13, -35, -3.4, i
> CCC(C(=O)NCCc1ccc(OC)cc1OC)n1nc(C)n2c(cc3occc32)c1=O (stereo unspecified)
    0.59, 3.0, -6, 0.4, -2, -1, -8, 1.0, i
> CCOC(=O)C1=C(C)NC(=O)NC1c1ccc(Br)s1 (stereo unspecified)
    0.71, 4.0, -6, 1.3, 0, nt, nt, nt, nt
> Nc1nonc1-n1nnc(C(=O)N/N=C/c2ccccc2)c1CN1CCc2ccccc21
    nt, nt, 1, 0.4, nt, 1, -1, 2.7, i
> CC(C)(C)NC(=O)C(c1ccccc1)N(Cc1cccs1)C(=O)c1csnn1 (stereo unspecified)
    0.71, -0.1, 1, 2.1, -4, nt, nt, nt, nt
> O=C(COC(=O)COc1ccc(Cl)cc1Br)NC1CC1
    0.71, -2.3, 1, 0.4, -6, 3, 2, -3.8, i
> Cc1ccc(-c2noc(C3CCCN(C(=O)c4c(F)cccc4F)C3)n2)cc1 (stereo unspecified)
    0.67, 3.0, 18, 1.3, 0, nt, nt, nt, nt
> CCCCNC(=O)c1ccc(CS(=O)(=O)Cc2ccccc2F)o1
    0.68, 1.6, -5, 0.6, -1, -30, -38, -15, i
> Cc1ccccc1-c1n[nH]c(=S)n1/N=C/c1ccc(-c2ccccc2Br)o1
    nt, nt, 15, -1.2, nt, 26, 17, 2.4, i

Some entries already given, showing only FGF22 binding and Ecoli rRNA inh OD600.
SMILES	FGF22 binding	Ecoli rRNA inh OD600
CC(=O)c1cc2c(cc1F)C(C)(C)CCC2(C)C	i	6
CC(=O)c1sc(NC(=O)CN2C(=O)C3CCCCC3C2=O)nc1-c1ccccc1 (stereo unspecified)	i	-35
CCC(C(=O)NCCc1ccc(OC)cc1OC)n1nc(C)n2c(cc3occc32)c1=O (stereo unspecified)	i	-8

New compounds follow
Under each structure – Ecoli growth, UCH37 inh, Beta2AR agonist, HNF4A DNA FP, ALR H2O2 inh, Ecoli rRNA inh, Ecoli rRNA inh OD600, Ecoli rRNA inh RFP, FGF22 binding
> CC1(C)CC(NC(=O)CCC2CCCC2)CC(C)(C)N1
    0.74, 4.0, -8, 0.3, -6, nt, nt, nt, nt
> CC(C)c1nc2ccc(C(=O)O)cc2[nH]1
    0.66, -2.1, 1, 1.5, -6, 16, 2, -2.5, i
> CCc1cccc(C)c1NC(=O)C1=C(C(=O)O)CCCC1
    0.73, 2.7, 4, -5.3, -5, nt, nt, nt, nt
> Cc1cc(SCC(=O)c2ccc3c(c2)OCO3)nc2ccccc12
    0.69, 0.7, -8, 3.5, -1, nt, nt, nt, nt
> Cc1ccc(OCC(=O)NNC(=S)NC(=O)c2ccc(Br)o2)c(C)c1
    0.69, 0.6, 3, 1.5, 98*, -45, -54, -9.4, i
> Fc1ccc(-n2c(-c3cccs3)nc3nc4ccccc4nc32)cc1
    0.66, -211, 20, 1.0, 9, nt, nt, nt, nt
> CCC(C)(C)n1nnnc1CN1CCN(c2ccc(OC)cc2)CC1
    0.67, 3.9, 3, 2.9, 94*, -16, -20, -0.7, i
> COc1ccc(S(=O)(=O)N2CCC(C(=O)NC3CC3)CC2)cc1OC
    0.69, -0.3, 7, 2.2, 1, 6, 17, 0.9, i
> COc1ccc(NS(=O)(=O)c2ccc(C)c(C(=O)N(C)CC(=O)Nc3cccc(OC)c3)c2)cc1
    0.73, 3.2, -4, 2.5, 7, -5, -3, 4.1, i
> COC(=O)C1CSC(C(=O)OC)N1C(=O)Nc1ccc(Cl)c(Cl)c1 (stereo unspecified)
    0.74, 1.8, 0, 2.8, -6, nt, nt, nt, nt
> O=C(NCc1nc(-c2ccccc2)no1)c1ccc2c(c1)OCO2
    0.69, 0.2, 0, 1.1, 8, nt, nt, nt, nt
> COc1ccc(C(=O)N2CCN(Cc3ccccn3)CC2)cc1
    0.66, 4.7, -4, -1.3, 1, 13, 14, -1.0, i
> COc1ccc(Cl)cc1NCCC(O)c1ccc(F)cc1 (stereo unspecified)
    0.65, 0.9, 11, 4.2, 99*, -39, -63, 1.7, i
> CCc1ccccc1NC(=O)CSc1nnc([C@@H](NC(=O)OC(C)(C)C)C(C)CC)o1 (stereo partly specified)
    0.7, 2.2, 4, -0.5, -11, nt, nt, nt, nt
> CN(C(=O)c1cccn(Cc2ccccc2)c1=O)c1ccccc1
    0.7, 2.0, -5, -3.8, -6, 16, 11, -0.7, i
> CC(=O)c1c(C)[nH]c(C(=O)CSc2nnc(NC3CC3)s2)c1C
    0.67, 5.3, -2, -3.0, nt, 0, 9, 1.8, i
> Cc1cc(C)c2ccc(N)nc2c1O
    0.59, 1.2, 17, -2.1, 91*, nt, nt, nt, nt
> Nc1nnc(SCC(=O)OCC(=O)NC23CC4CC(CC(C4)C2)C3)s1
    0.68, 2.0, 1, -1.5, -8, 13, 8, -1.2, i
> COCCNC(=O)CSCc1c(F)cccc1Cl
    0.68, 0.8, 4, -3.3, -8, 5, 8, 3.9, i
> O=C(c1ccc2c(c1)OCO2)N(c1ccc(Cl)cc1)C1C=CS(=O)(=O)C1 (stereo unspecified)
    0.69, 1.5, 2, -1.9, 0, nt, nt, nt, nt
> Cc1ccc(N2C(=O)CN(Cc3sccc3C)C2=S)cc1C
    nt, 1.9, -12, 2.1, nt, nt, nt, nt, nt
> Cc1cccn2c(=O)nc(SCC(=O)NCc3ccccc3)nc12
    0.63, -3.9, -7, 1.3, -11, 2, 8, -1.0, i
> CCOC(=O)c1[nH]c2cc(OC)c(OC)cc2c1NC(=O)c1ccc2c(c1)OCO2
    0.66, -23, 4, -3.0, -2, nt, nt, nt, nt
> OCCOCCNc1ncnc2c1cnn2-c1ccc(Cl)cc1
    0.73, 0.1, 0, 5.7, -13, nt, nt, nt, nt
> Cc1c(C(=O)N2CCc3ccccc32)cnn1C
    0.71, -0.2, -6, 4.7, 0, nt, nt, nt, nt
> COc1ccc(/C=C2\SC(=O)N(CC(=O)NCCC(C)C)C2=O)cc1OC
    0.68, -37, 1, 1.8, -5, 6, -12, -1.3, i
> CC(C)(O)C#Cc1ccc(C(=O)NCCC(=O)O)s1
    0.71, -0.5, 4, -1.9, -4, 24, 12, -0.6, i
> O=C(NCCCn1ccnc1)c1cc(-c2ccc3c(c2)OCO3)on1
    0.63, 0.3, -10, 3.8, -4, -1, -6, -1.8, i
> CCC(=O)c1ccc(OCC(=O)NC2(C#N)CCCCC2)cc1
    0.67, -2.2, 10, -0.6, nt, -2, -10, 0.4, i
> Cc1ccc(C(C(=O)NC2CCCC2)N(Cc2ccco2)C(=O)CCC(=O)Nc2ccccn2)cc1 (stereo unspecified)
    0.75, 1.5, -4, 0.1, -18, nt, nt, nt, nt
> O=C(O)c1cc(=O)c2c(OCC(O)COc3cccc4oc(C(=O)O)cc(=O)c34)cccc2o1
    nt, nt, -1, -1.3, nt, nt, nt, nt, i
> Cc1ccc(NC(=O)CCC(=O)NNC(=O)CCc2ccccc2)c(C)c1
    0.68, -1.3, -4, 4.7, nt, 20, 3, 2.1, i
> Cc1ccc(C)c(NS(=O)(=O)c2ccc(OCC(=O)N3CCOCC3)cc2)c1
    0.77, -3.4, 1, -2.2, -6, nt, nt, nt, nt
> O=C(N/N=C/c1cc(Br)c(Br)o1)c1cccnc1
    nt, nt, -6, -26, -69, nt, nt, nt, nt
> Cc1noc(C)c1S(=O)(=O)N1CCC(C(=O)N(C)Cc2ccccc2)CC1
    0.72, 3.0, -2, -1.6, -4, nt, nt, nt, nt
> CCCCCCCCN1[C@@H](CC(C)=O)c2cc(C(F)(F)F)ccc2S1(=O)=O
    0.79, 1.6, 3, 3.5, 1, -2, 7, 2.0, i
> CSC1=Nc2sc3c(c2C2=NCCN12)CC(C)(C)OC3
    0.66, -5.0, -3, -0.1, nt, 6, 4, -3.8, i
> Cc1cnc(C(=O)Nc2nnc(C)s2)cn1
    0.69, 8.7, -4, -1.6, -3, nt, nt, nt, nt
> CC(CN1C(C)CCCC1C)OC(=O)c1ccc(Cl)cc1Cl (stereo unspecified)
    0.69, 5.7, -2, 1.2, -1, 15, 14, 2.5, i
> CCC(C)[C@H]1COCCS(=O)(=O)N1Cc1ccc(Cl)cc1Cl (stereo partly specified)
    nt, 2.1, -2, 0.4, -12, -47, -74, -36, i
> Cc1ccc(-c2csc3n[nH]c(=S)n23)cc1
    0.65, 0.9, 2, 1.8, 98*, nt, nt, nt, nt
> Cc1cnc(C(=O)OCC(=O)Nc2ccc(Br)c(C)c2)cn1
    0.7, 1.3, -9, 1.1, -1, nt, nt, nt, i
> O=C(CNC(=O)c1ccccc1)NCC(=O)OCc1ccc(Cl)cc1
    0.71, -0.3, 22, -5.0, 4, nt, nt, nt, nt
> COc1cc(/C=C/CNC[C@H]2O[C@@H](n3cc(C)c(=O)[nH]c3=O)C[C@@H]2O)ccc1O
    nt, nt, nt, -2.6, nt, 14, 0, 3.8, i
> CCn1c(=O)c2cc(C(=O)N3CCOCC3)sc2c2ccccc21
    0.7, -44, -18, -5.5, -14, -10, -28, -5.8, i
> CC(C)(C)CC(=O)Nc1cc2c3c(c1)CC(=O)N3CCC2
    0.68, -7.4, -3, -1.5, -37, 3, 7, -0.1, i

Screening data from PubChem.
